# ClpP mod = qHTS Assay for Activators of ClpP. purified B. subtilis ClpP, FRET peptide cleavage, 20 min. Potency, µM (titrated, usually from 57.5 µM), inactives show at the highest dose activity change, negative = active. actives 1.9% (n = 340,000). AID 651965, 2013; active = well fitted falling curve with a large enough effect; inconclusive = small, poorly fitted or top-dose-only effect; inactive = no such curve, though single readings can be large or run the other way; note: the source files actives as falling curves though it sought activators and does not explain the sign; nearly all actives have a fitted effect of over 65% in size; many hits overshoot -100%
# Target sequence (P80244 whole entry, looked up): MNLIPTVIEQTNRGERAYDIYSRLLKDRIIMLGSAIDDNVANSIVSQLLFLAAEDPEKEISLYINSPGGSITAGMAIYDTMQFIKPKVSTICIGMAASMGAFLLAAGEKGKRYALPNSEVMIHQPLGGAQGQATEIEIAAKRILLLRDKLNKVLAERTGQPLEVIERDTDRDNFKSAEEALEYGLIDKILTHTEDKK
#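 Buffer: 100 mM Tris/HCl pH8, 100 mM KCl, 0.05% low protease BSA, 2.5% glycerol, 0.01% Tween-20. ClpP 10 microg/mL final; 20 min RT; delta FRET normalized to ADEP and DMSO controls.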
# * hit, by the source's call; u = inconclusive. Potency is the fitted concentration of half-maximal effect. These rows are one share of the data; count on the stated rates, not on these rows.
# The opening 14 records, ahead of the listing:
SMILES,ClpP mod
CCOc1ccc(NC(=O)c2c(NC(=O)c3ccncc3)sc3c2CCC(C(C)(C)C)C3)cc1 (stereo unspecified),1.2%
COc1cc(C2c3c(-c4c(C)cc(C)cc4O)n[nH]c3C(=O)N2CCO)cc(OC)c1OC (stereo unspecified),1.9%
CCCCNC(=O)CSC1=Nc2ccccc2C2=NC(CCC(=O)NCc3ccccc3OC)C(=O)N12 (stereo unspecified),-26.9%
COc1ccc(-c2ccc(NS(=O)(=O)c3ccccc3Cl)cc2)nn1,0.8%
COc1ccc(OC)c(NC(=O)c2cc3cc(C)ccc3n2C)c1,6.8%
O=C(c1cccc(F)c1)N1CCC(c2c[nH]c3ccccc23)(c2c[nH]c3ccccc23)CC1,-1.4%
Cc1c(C(=O)NCc2ccccc2Cl)sc2nc3n(c(=O)c12)CCCC3,-4.3%
C=C1C=C(C(F)F)n2ncc(C(=O)NC(C)CC)c2N1 (stereo unspecified),-0.5%
Cc1cccc(NC(=O)Cn2c(=O)n(-c3ccccc3Cl)c(=O)c3c(C)c(C(=O)N(C)C)sc32)c1,0.6%
Cc1cc(C)c(NC(=O)Cn2nnc3sc4c(c3c2=O)CCC(C(C)(C)C)C4)c(C)c1 (stereo unspecified),1.4%
CC(=O)Nc1ccc(NC(=O)c2cc3sccc3n2Cc2ccc(F)cc2)cc1,3.9%
COc1ccc(NC(=O)CSc2nnc3scc(-c4ccc(Cl)cc4)n23)cc1,12.6%
CC(=O)N1c2ccc(S(=O)(=O)Nc3ccc(Cl)cc3C)cc2CC1C (stereo unspecified),-2.3%
COCC(C)Nc1ncnc2c1cnn2-c1ccc(C)c(C)c1 (stereo unspecified),3.9%

# This part in full, repeating the preview:
SMILES,ClpP mod
CCOc1ccc(NC(=O)c2c(NC(=O)c3ccncc3)sc3c2CCC(C(C)(C)C)C3)cc1 (stereo unspecified),1.2%
COc1cc(C2c3c(-c4c(C)cc(C)cc4O)n[nH]c3C(=O)N2CCO)cc(OC)c1OC (stereo unspecified),1.9%
CCCCNC(=O)CSC1=Nc2ccccc2C2=NC(CCC(=O)NCc3ccccc3OC)C(=O)N12 (stereo unspecified),-26.9%
COc1ccc(-c2ccc(NS(=O)(=O)c3ccccc3Cl)cc2)nn1,0.8%
COc1ccc(OC)c(NC(=O)c2cc3cc(C)ccc3n2C)c1,6.8%
O=C(c1cccc(F)c1)N1CCC(c2c[nH]c3ccccc23)(c2c[nH]c3ccccc23)CC1,-1.4%
Cc1c(C(=O)NCc2ccccc2Cl)sc2nc3n(c(=O)c12)CCCC3,-4.3%
C=C1C=C(C(F)F)n2ncc(C(=O)NC(C)CC)c2N1 (stereo unspecified),-0.5%
Cc1cccc(NC(=O)Cn2c(=O)n(-c3ccccc3Cl)c(=O)c3c(C)c(C(=O)N(C)C)sc32)c1,0.6%
Cc1cc(C)c(NC(=O)Cn2nnc3sc4c(c3c2=O)CCC(C(C)(C)C)C4)c(C)c1 (stereo unspecified),1.4%
CC(=O)Nc1ccc(NC(=O)c2cc3sccc3n2Cc2ccc(F)cc2)cc1,3.9%
COc1ccc(NC(=O)CSc2nnc3scc(-c4ccc(Cl)cc4)n23)cc1,12.6%
CC(=O)N1c2ccc(S(=O)(=O)Nc3ccc(Cl)cc3C)cc2CC1C (stereo unspecified),-2.3%
COCC(C)Nc1ncnc2c1cnn2-c1ccc(C)c(C)c1 (stereo unspecified),3.9%
Nc1ccc(/C=C/c2ccnc3ccccc23)cc1[N+](=O)[O-],-1.4%
Cc1ccc(NC(=O)Cn2c(=O)n(Cc3ccc(F)cc3)c(=O)c3cccnc32)cc1C,4.0%
Cn1nc(C(=O)Nc2cc(F)ccc2F)c2c1-c1ccccc1SC2,-0.8%
O=C(CSc1nc2c(oc3ccccc32)c(=O)n1Cc1ccco1)Nc1cccc(Cl)c1,11.5%
CCOc1ccc(C(=O)Nc2ccc3nn(-c4ccc(OC)c(Cl)c4)nc3c2)cc1,4.0%
Cc1ccc(C(C)C)c(OCC(=O)NCC2(N(C)C)CCCCC2)c1,-1.6%
COc1cc2c(NC3CCN(C)CC3)nc(N3CCN(C)CC3)nc2cc1OCCOCCN(C)C,3.7%
CCOC(=O)CSc1nc2cc3c(cc2c(=O)n1Cc1ccc(C(=O)NCCc2ccc(OC)c(OC)c2)cc1)OCO3,-2.3%
COc1cccc2sc(NC(=O)CS(=O)(=O)c3ccc(C)cc3)nc12,-4.7%
CCC12CN3CC(C)(CN(C1)C3c1c(C)n(C)c3ccccc13)C2=O (stereo unspecified),-0.1%
COc1cc(NC(=O)Cn2cc(S(=O)(=O)c3ccccc3)c(=O)c3ccccc32)cc(OC)c1,-1.3%
CCOc1ccc(-n2c(C)nc3cc(C(=O)NCc4ccc(C)cc4)ccc32)cc1,-0.6%
CCC(CC)C(=O)N1CCc2cc(OC)c(OC)cc2C1COc1ccccc1OC (stereo unspecified),0.6%
CCC(=O)N1c2nc(C(C)C)nn2C2(CCCCC2)[C@@H]2CCCC[C@@H]21,0.0%
C=C(c1nc2ccccc2s1)C1Cc2cccc3c2N(CCC3)C1 (stereo unspecified),-0.2%
Cc1nn(CC(=O)NC2CCC(C)CC2)c(=O)c2c1sc1ccccc12 (stereo unspecified),-11.5%
Cc1cccc(C(C)C)c1NC(=O)c1ccc2c(c1)CCCN2S(C)(=O)=O,2.1%
Cc1ccc(C)c(N(C)C(=O)c2cn(C)c(=O)c3ccccc23)c1,-8.6%
Cc1cc(C)cc(NC(=O)CCCc2nc(-c3ccccc3Cl)no2)c1,1.2%
CCC1CCCCN1C(=O)CSc1nc2c([nH]c3ccccc32)c(=O)n1-c1ccc(OC)cc1 (stereo unspecified),-26.4%
Cc1ccc(CNC(=O)c2cc(C)nc3c2c(C)nn3-c2ccc(C)cc2)cc1,4.0%
Cc1cc(C)cc(NC(=O)c2sc3nc[nH]c(=O)c3c2C)c1,-7.7%
COCCNC(=O)CSc1nnc2[nH]c(=O)cc(C)n12,-12.1%
O=C(Nc1ccc(Cl)c(-c2nc3ccccc3o2)c1)c1cccc2c(Cl)cccc12,-7.8%
O=C(NCc1ccccc1)C(=O)NCC(c1cccs1)S(=O)(=O)c1ccccc1 (stereo unspecified),-0.3%
COc1ccc(CN(Cc2ccco2)c2cnc(S(C)(=O)=O)nc2C(=O)Nc2ccc(C)c(Cl)c2)cc1,-9.3%
CCC(=O)Nc1cccc(OCc2cc(=O)n3cc(C)ccc3n2)c1,4.1%
Cc1ccn2c(Nc3ccc4c(c3)OCO4)c(-c3ccco3)nc2c1,4.4%
CCCCN(CC)CCNC(=O)Cn1cnc2sc(C)c(S(=O)(=O)N3CCN(c4ccccc4OC)CC3)c2c1=O,-0.7%
CCn1ccc2c(OCC(=O)Nc3ccc(OC)cc3OC)cccc2c1=O,-5.7%
COc1ccc(CCNC(=O)CCc2c(C)nc3cc(-c4ccc(Cl)cc4)nn3c2C)c(OC)c1,-16.4%
Cc1ccccc1CNC(=O)CCSCc1cnn(-c2ccccc2)c1-n1cccc1,0.0%
COc1ccc(NC(C)=O)cc1NC(=O)C1(c2cccs2)CCOCC1,-1.2%
Cn1c(=O)c2sccc2n2c(CCC(=O)Nc3ccc(F)cc3)nnc12,-9.8%
CC(C)(C)OC(=O)N1CCC(c2c(C(=O)N3CCN(C(=O)c4ccco4)CC3)cnn2-c2cccc(F)c2)CC1,2.0%
O=C(Nc1nc2c(F)cc(F)cc2s1)c1ccc(S(=O)(=O)N2CCc3ccccc32)cc1,-5.8%
Cc1ccc2onc(CC(=O)N3CCN(c4cccc(Cl)c4)CC3)c2c1,-2.1%
COc1ccc(C2CC(=O)c3c([nH]c(C(=O)OCc4ccccc4)c3C)C2)cc1OC (stereo unspecified),-4.5%
CCN(CC)C(=O)CSc1nc2c(c(=O)n(C)c(=O)n2C)n1Cc1ccccc1,1.1%
CC1CCN(c2cc3c(cc2F)c(=O)c(S(=O)(=O)c2cccc(Cl)c2)cn3Cc2ccccc2)CC1,-20.2%
CCN1c2ccccc2-c2nc(SCC(=O)Nc3cc(OC)cc(OC)c3)ncc2S1(=O)=O,-20.6%
CCc1ccc(NCc2cc3cc(OC)c(OC)cc3n(CC(=O)Nc3cc(C)ccc3C)c2=O)cc1,-17.4%
CCCCCCCCCC[n+]1ccc(/C=C/c2c(C)[nH]c3ccccc23)c2ccccc21,1.1%
Cc1cccc(OCC(=O)Nc2ccccc2C(=O)OCc2cc(=O)n3nc(C)sc3n2)c1,11.6%
CCn1c(SC(C)C(=O)Nc2ccc(C)cc2)nnc1-c1ccccc1 (stereo unspecified),-0.9%
O=C(c1cn(CCOc2ccc(Cl)cc2)c2ccccc12)C1CCCCC1,-2.6%

# Shown with tabs: entries from further up
Compound	ClpP mod
CCN1c2ccccc2-c2nc(SCC(=O)Nc3cc(OC)cc(OC)c3)ncc2S1(=O)=O	-20.6%
CCc1ccc(NCc2cc3cc(OC)c(OC)cc3n(CC(=O)Nc3cc(C)ccc3C)c2=O)cc1	-17.4%

# Later entries.
SMILES,ClpP mod
COc1ccc(OC)c(CNC(=O)c2ccccc2NC(=O)c2nsc3ccccc23)c1,-14.3%
Cc1cccc(NC(=O)Cn2c(=O)n(CC3CCC(C(=O)NCCc4ccccc4)CC3)c(=O)c3ccccc32)c1C (stereo unspecified),1.0%
CCCCN(CCCC)CCNC(=O)c1cn(C)c2ccc(S(=O)(=O)N3CCOCC3)cc2c1=O,-0.5%
CCCCN(CC)C(=O)C1CCCN(c2ncnc3c2nc2n3CCCCC2)C1 (stereo unspecified),-1.2%
Cc1ccc2oc(C(=O)Nc3ccc(S(=O)(=O)N4CCCCCC4)cc3)cc(=O)c2c1,-7.8%
CN(C)C(=O)c1ccc(/C=C/c2ccnc3ccccc23)cc1,-6.2%
O=C(CSc1ccc(-c2cccs2)nn1)Nc1cccc(F)c1,u
CCOC(=O)c1ccc(N2CCN(c3cc(Cl)ccc3C)CC2)c(NC(=O)Nc2ccc(OCC)cc2)c1,-13.4%
COc1ccc(C)cc1NC(=O)c1cc(S(=O)(=O)NCCC2=CCCCC2)ccc1F,0.1%
Cc1ccc(NC(=O)/C=C\C(=O)N(c2ccc(C(C)C)cc2)C(C(=O)NCc2ccco2)c2ccc(F)cc2)cc1 (stereo unspecified),-0.7%
COc1ccc(-c2noc(N3CCN(c4ccc(C)cc4)C(C)C3)n2)cc1OC (stereo unspecified),0.0%
CCN(C(=O)C1CCCN(S(=O)(=O)c2c(C)noc2/C=C/N(C)C)C1)c1cccc(C)c1 (stereo unspecified),-2.0%
Cc1ccc(CNCc2c(C(=O)O)n(Cc3ccc(C)cc3)c3cc(C)ccc23)cc1,-13.7%
CCC(C)NC(=O)c1sc2nc(C)c(C(=O)Nc3ccc(C)cc3C)c(-c3ccc(Br)cc3)c2c1N (stereo unspecified),-15.0%
COc1cc(NC(=O)CCS(=O)(=O)c2nc(-c3ccc4c(c3)OCO4)cc(C(F)(F)F)n2)cc(OC)c1OC,-0.2%
CCc1c(C)sc2c1CCN(C(=O)Nc1ccc(F)c(Cl)c1)C2c1ccc(F)cc1 (stereo unspecified),-1.8%
COc1ccc(CNC(=O)C(=O)NCC(c2cccnc2)N2CCN(c3ccccc3)CC2)cc1 (stereo unspecified),-0.8%
CCOc1ccc(-c2csc(/C(C#N)=C/c3ccc(Br)cc3)n2)cc1,-4.7%
CCc1ccc(NC(=O)CSc2ccnc(=O)[nH]2)cc1,0.9%
CCCn1c2ccccc2c2cnn(CC(=O)NCc3cc(OC)ccc3OC)c(=O)c21,-26.0%
Cc1cccc(CCNC(=O)C2CCCN(S(=O)(=O)c3ccc4c(c3)oc(=O)n4C)C2)c1 (stereo unspecified),1.0%
O=C(CN1C(=O)C2CCCCN2c2ccc(C(=O)N3CCCC3)cc21)NCc1ccccc1 (stereo unspecified),-12.5%
Cc1ccc2oc(=O)c3cc(C(=O)N4CCN(c5ccccc5F)CC4)sc3c2c1,-3.5%
CCOc1ccc2nc(NC(=O)CS(=O)(=O)c3ccc(Cl)cc3)sc2c1,-1.7%
O=C(Cn1c(=O)n(-c2ccc(Cl)cc2)c(=O)c2c3c(sc21)CCC3)c1ccccc1,-1.9%
O=C(COc1ccccc1F)Nc1nnc(SCc2cc(=O)c3ccccc3[nH]2)s1,1.3%
CCC(Sc1nc2ncccc2o1)C(=O)Nc1cccc(C)c1 (stereo unspecified),0.8%
Cc1ccc(Cl)cc1NC(=O)Nc1nnc(N2CCCC(C)C2)s1 (stereo unspecified),0.4%
Cc1ccc(N(CC(=O)Nc2cccc(Cl)c2)S(=O)(=O)c2cccs2)cc1,1.1%
CCOC(=O)CSc1nc2sc3c(c2c(=O)n1-c1ccccc1)CCC(C(C)(C)C)C3 (stereo unspecified),-1.0%
Cc1ccc(-n2ncc(C(=O)N3CCN(c4cccc(C)c4C)CC3)c2C2CCNCC2)c(C)c1,-0.4%
CCOC(=O)c1cc2c(=O)n3ccccc3nc2n(CC2CCCO2)c1=NC(=O)c1ccccc1Br (stereo unspecified),4.7%
O=C(c1ccc2c(c1)N(Cc1ccccc1)C(=O)c1ccccc1S2(=O)=O)N1CCN(c2ccccc2)CC1,-5.6%
O=C(NCC(c1ccc(Cl)cc1)N1CCCCC1)c1ccccc1 (stereo unspecified),-3.0%
COc1ccc(-c2oc3ncn4nc(COc5c(C)cccc5C)nc4c3c2-c2ccc(OC)cc2)cc1,3.8%
COc1cccc(NC(=O)CN(Cc2ccccc2)S(=O)(=O)c2ccc3nc(C)sc3c2)c1,0.3%
CC(=O)c1cccc(NC(=O)Nc2sc3nc4n(c(=O)c3c2C)CCC(C)CC4)c1 (stereo unspecified),-8.9%
COc1cc(OC)c(N(C)C(=O)c2nn(C)c3c2CSc2ccccc2-3)cc1Cl,-1.8%
COc1cccc(N2CCN(C(=O)c3cccn3-c3nnc(N4CCCCC4)s3)CC2)c1,-0.6%
O=C(c1noc2c1CCCCC2)N1CCN(c2ccc(Cl)cc2)CC1,-1.6%
